Assay outcomes (PubChem BioAssay)
T cruzi inh: T. cruzi replication inhibition; T. cruzi beta-gal in NIH3T3, luminescence, 90 h; inhibition, % (no concentration beside the values); 300,000 compounds, 1.4% hits; AID 1885;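 active = mean inhibition across valid replicates above about 55%, limit read from the data; inconclusive = mean below that limit but half or more replicates reach it; inactive = mean below it, under half of replicates reach it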;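 note: signal also drops with host cell toxicity which is not excluded here; 0% = plate median of DMSO wells and 100% = zero luminescence signal; higher percent means less beta-gal luminescence so fewer parasites; stock transfer was 50 nL into about 50 µL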
RanGTP-Imp inh: disruptors of Ran-importin-beta complex formation – biochemical, FRET, CFP-Ran, YFP-importin-beta, homogeneous, primary screen | cell-free CFP-Ran/YFP-importin-beta FRET ratio | inhibition, % (test concentration not listed) | 300,000 compounds, 1.1% hits | AID 2216;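 active = most replicates above 15%; inconclusive = exactly half above 15%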;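 note: 0% = DMSO wells and 100% = Ran loaded with GDP instead of GTP; wells of about 40 µL received 100 nL stock; the first replicate is given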
Bfl-1 A1 inh: inhibitors of the anti-apoptotic protein A1, read as caspase activation; 330,000 compounds, 0.066% hits; MEF A1-2A-BIM cells, Caspase-Glo 3/7 luminescence, 3 h; percent of clofoctol response, vehicle zero; caspase activation, % (concentration not given with the values);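 active = over half of replicate activation scores above 10%, or exactly half above 10 with the replicate mean above 10; inconclusive = replicate mean below 10 yet half the replicates above 10; inactive = over half of replicates below 10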;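 note: wells of about 30 µL received 50 nL stock; many hits fall short of the cut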
LANA-H2A inh: blocks KSHV LANA binding to histone H2A/H2B; Q9QR71; cell-free LANA-H2A/H2B peptide, fluorescence polarization; inhibition, % (test concentration not listed); 320,000 compounds, 0.6% hits; AID 2629; in the data active = inhibition mostly above about 10%, no sharp cut-off; inactive = mostly below about 6.7%;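 note: stock transfer was 7.5 nL into about 10 µL; 0% = median of vehicle wells and 100% = median of positive control wells; one replicate is shown; the record names a cut of 25% in any replicate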
Target sequence (Q9QR71 whole entry, looked up): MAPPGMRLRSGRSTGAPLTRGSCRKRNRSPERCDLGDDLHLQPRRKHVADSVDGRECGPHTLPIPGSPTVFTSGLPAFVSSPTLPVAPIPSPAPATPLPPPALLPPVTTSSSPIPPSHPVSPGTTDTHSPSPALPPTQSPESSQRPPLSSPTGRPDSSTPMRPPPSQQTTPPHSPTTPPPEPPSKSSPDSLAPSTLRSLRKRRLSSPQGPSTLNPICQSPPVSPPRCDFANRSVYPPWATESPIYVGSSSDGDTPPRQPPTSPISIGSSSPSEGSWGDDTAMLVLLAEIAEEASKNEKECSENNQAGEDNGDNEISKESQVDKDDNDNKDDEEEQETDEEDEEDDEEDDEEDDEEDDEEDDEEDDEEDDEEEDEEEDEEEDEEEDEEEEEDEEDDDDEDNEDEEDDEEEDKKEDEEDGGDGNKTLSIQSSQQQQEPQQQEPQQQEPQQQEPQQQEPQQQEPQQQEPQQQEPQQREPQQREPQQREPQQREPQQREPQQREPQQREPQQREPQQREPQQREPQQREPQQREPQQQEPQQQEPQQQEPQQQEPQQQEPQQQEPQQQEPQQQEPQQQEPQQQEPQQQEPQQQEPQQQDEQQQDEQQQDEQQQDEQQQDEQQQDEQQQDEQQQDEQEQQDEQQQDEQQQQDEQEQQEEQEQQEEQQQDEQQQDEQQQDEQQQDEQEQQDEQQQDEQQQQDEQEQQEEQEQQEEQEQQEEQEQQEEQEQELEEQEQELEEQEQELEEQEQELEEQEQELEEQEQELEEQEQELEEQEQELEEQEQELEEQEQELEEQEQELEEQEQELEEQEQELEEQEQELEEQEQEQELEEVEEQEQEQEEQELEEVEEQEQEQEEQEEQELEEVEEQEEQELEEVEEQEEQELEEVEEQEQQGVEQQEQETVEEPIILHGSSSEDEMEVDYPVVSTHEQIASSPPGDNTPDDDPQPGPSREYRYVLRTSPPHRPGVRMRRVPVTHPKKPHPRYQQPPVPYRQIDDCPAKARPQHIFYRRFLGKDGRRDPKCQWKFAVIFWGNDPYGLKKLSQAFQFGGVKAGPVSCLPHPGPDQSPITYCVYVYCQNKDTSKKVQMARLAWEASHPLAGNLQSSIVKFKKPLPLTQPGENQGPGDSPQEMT
Vif A3G: HIV-1 Vif–A3G interaction blockers – biochemical, TR-FRET, GST-Vif 1-94, biotin-A3G peptide, dose response retest, primary screen (AID 1117319); TR-FRET GST-Vif / biotin-A3G peptide binding; higher % means a stronger effect; test concentration not given here; strong numbers were not always called active; inhibition, %; hits with a dose series show IC50 in µM; 260,000 compounds, 0.57% hits;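 active = above the screen mean plus three standard deviations and confirmed in dose response; inconclusive = results disagree or hit not tested in dose response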;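 note: Vif residues 1-94 fused to GST binding biotinylated APOBEC3G peptide 110-148; 0% = full assay without inhibitor and 100% = GST in place of GST-Vif; retest series ran down from 100 µM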
MLL AF4-AF9 inh: inhibitors of human MLL-AF4/AF9 interaction; P42568; AlphaScreen, biotin-AF4 peptide binding to FLAG-AF9; inhibition, % at 10 µM; 350,000 compounds, 0.47% hits;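 active = every replicate reaching a set inhibition limit, whatever the replicate mean, cut at about 25% in these data; inconclusive = mean inhibition reaches that limit but some replicates miss it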;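 note: 0% = plate neutral control median and 100% = total signal loss; the record names both 10 and 1 µM as test concentration; the first replicate is given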
Calb FLC: affects C. albicans growth with fluconazole | C. albicans CaCi-2 (fluconazole-resistant clinical isolate) + fluconazole, Alamar Blue growth, 48 h | 300,000 compounds, 0.57% hits | growth inhibition, % (concentration not given with the values);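 active = most replicates above 75%; inconclusive = exactly half above 75%; inactive = most below 75%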;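 note: all wells also contain fluconazole at 8 µg/ml as a sub-toxic cotreatment; 0% = median of DMSO wells and 100% = median of geldanamycin control wells; wells of about 8 µL received 7.5 nL stock; the first replicate is given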
Beta apoptosis: blocks beta cell apoptosis; AID 435005; protection from apoptosis, % (concentration not given with the values); INS-1E cytokine-induced death, ATP luminescence, 48 h; percent of positive-control rescue, neutral wells zero; 300,000 compounds, 0.8% hits;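 active = all replicates at 75% or more, or half of them and the mean; inconclusive = half reach 75% but not the mean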;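 note: 0% = cytokine-treated negative control wells and 100% = positive control rescue; higher means more ATP so stronger rescue from cytokine killing; wells of about 40 µL received 100 nL stock; the first replicate is given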
Active calls of the source: *; ? = inconclusive; . = not tested or not shown; & = joins results of further samples. Compounds were not picked by outcome; about 4.3% have a hit in one of these screens.

SMILES | T cruzi inh | RanGTP-Imp inh | Bfl-1 A1 inh | LANA-H2A inh | Vif A3G | MLL AF4-AF9 inh | Calb FLC | Beta apoptosis
Cc1cc(C)n(-c2cc(C(=O)O)cc(C(=O)O)c2)n1 | -8.7 | 3.3 | 0.1 | 0.4 | . | -2.4 | -3.5 | 2.1
CCN(CC)CCCNC(=O)C1c2ccccc2C(=O)N(C)C1c1ccc(OC)cc1 (stereo not drawn) | -5.8 | -1.7 | -0.4 | 3.0 | 21.2% | . | 4.2 | -7.8
CCCCn1c(SCC(=O)NC(=O)Cc2ccccc2)nc2ccccc2c1=O | . | . | 0.4 | 0.9 | -18.4% | 1.6 | . | -0.7
Cc1cc(C)nc(NS(=O)(=O)c2ccc(NC(=O)c3cccs3)cc2)n1 | -2.4 | -0.2 | 0.9 | 1.0 | 5.8% | . | 16.0 | -2.2
COC(C/C=C/[C@@H](O)[C@H](C)OCc1ccccc1)OC | -6.2 | -2.8 | 1.2 | 1.7 | . | . | 8.4 | -2.1
CC1(C(=O)O)CCC(C(=O)NC2CCCCCC2)C1(C)C (stereo not drawn) | 6.3 | -2.1 | 0.4 | -20.7 | -1.9% | 4.6 | -17.3 | 0.5
CC(NC(=O)CCN1N=C(c2ccccc2)CCC1=O)c1ccc2c(c1)OCCO2 (stereo not drawn) | -7.3 | 3.4 | -0.2 | -0.3 | 20.0% | . | 4.7 | -2.3
CCC(C(=O)NC1CCCC1)N(C(=O)Cn1nnc(-c2cccs2)n1)c1cnc2ccccc2c1 (stereo not drawn) | 6.9 | 1.0 | 0.3 | -3.3 | -5.9%&-4.2% | . | 33.6 | .
CCCOc1ccc(N2C(=O)CC(NCCCN3CCC(C(N)=O)CC3)C2=O)cc1 (stereo not drawn) | -1.9 | 4.9 | -0.1 | 4.9 | . | . | 19.2 | -0.9
CC1Cc2ccccc2N1C(=O)CSc1ncc(-c2ccc(F)cc2)n1C (stereo not drawn) | -6.7 | 3.3 | -2.9 | -2.7 | . | 11.3 | 15.0 | -2.1
O=C1CN=C(Nc2ccccc2Cl)N1Cc1ccc2c(c1)OCO2 | 1.1 | 1.2 | 1.2 | 0.7 | ? | . | -14.6 | 3.1
CCOC(=O)c1cnc2ccc(C)cn2c1=O | 1.5 | 6.0 | 0.1 | -4.1 | . | 0.1 | -3.1 | -5.3
CCN1C(=O)N(CC)C2NC(=S)NC21 (stereo not drawn) | . | 3.5 | 0.9 | 5.4 | -3.1% | . | -2.5 | -3.7
Cc1cc(C(=O)C(C)OC(=O)c2cnccn2)c(C)n1-c1ccccc1 (stereo not drawn) | 1.5 | -0.8 | -0.2 | 1.3 | 1.9% | 5.1 | -3.7 | .
COc1cccc(CNC(=O)CSCC(=O)Nc2ccc(C)cc2)c1 | 11.1 | -2.5 | 0.2 | -4.8 | 2.1% | -2.8 | -2.3 | -4.1
COc1cccc(NC(=O)C(NCC(C)(C)CN(C)C)c2ccccc2)c1 (stereo not drawn) | 7.9 | 0.8 | -0.1 | 1.6 | -0.3% | . | -5.0 | 0.2
Cc1nc(SCCCSc2n[nH]c(C)n2)n[nH]1 | 4.4 | 5.7 | 0.0 | 3.4 | 2.4% | . | 7.1 | -3.7
CC(C)n1nnnc1-c1cc(Cl)cc(Cl)c1 | -32.8 | -1.0 | 0.6 | -2.9 | 28.5% | . | -3.7 | 7.8
CCC(C)(C)NC(=O)C(c1ccc(O)cc1)N(C(=O)Cn1nnc2ccccc21)c1ccc(NC(C)=O)cc1 (stereo not drawn) | -12.1 | 4.0 | 1.7 | 2.1 | 1.1% | -8.2 | -0.8 | -9.1
COc1ccc(-c2nn(-c3ccccc3C)cc2CNC(C)c2cn(C)nc2C)cc1F (stereo not drawn) | -3.9 | 6.2 | 1.1 | 3.9 | 18.1% | 5.5 | -7.6 | -4.4
CC(=O)N1CCc2cc(S(=O)(=O)NC(CC(C)C)C(=O)Nc3cc(C(=O)O)ccc3C)ccc21 (stereo not drawn) | -0.8 | 0.0 | ? | 5.8 | 0.6% | . | 4.4 | -1.4
CC(C)c1ccc(NC(=O)C2C3C=CC(CC3)C2C(=O)O)cc1 (stereo not drawn) | . | 2.3 | 1.4 | 0.3 | . | -1.4 | 12.6 | .
CC(C)OC(=O)CCCN1C(=O)c2ccc(N)cc2C1=O | 1.2 | -7.1 | -0.2 | 0.6 | -1.6% | . | -4.1 | 0.0
COc1cccc(-n2c(SCC(=O)N3CCc4ccccc43)nnc2-c2c[nH]c3ccccc23)c1 | -30.6 | -1.1 | 0.4 | 3.6 | -13.8% | 0.9 | -6.1 | 69.3
OC(COc1ccccc1)Cn1cc(Br)cn1 (stereo not drawn) | -2.6 | -0.2 | 0.4 | -1.0 | 15.2% | . | -0.4 | -1.4

Some of the entries above, reformatted:
Compound,T cruzi inh,RanGTP-Imp inh,Bfl-1 A1 inh,LANA-H2A inh,Vif A3G,MLL AF4-AF9 inh,Calb FLC,Beta apoptosis
COC(C/C=C/[C@@H](O)[C@H](C)OCc1ccccc1)OC,-6.2,-2.8,1.2,1.7,.,.,8.4,-2.1
OC(COc1ccccc1)Cn1cc(Br)cn1 (stereo not drawn),-2.6,-0.2,0.4,-1.0,15.2%,.,-0.4,-1.4
CCOC(=O)c1cnc2ccc(C)cn2c1=O,1.5,6.0,0.1,-4.1,.,0.1,-3.1,-5.3

Further compounds:
SMILES | T cruzi inh | RanGTP-Imp inh | Bfl-1 A1 inh | LANA-H2A inh | Vif A3G | MLL AF4-AF9 inh | Calb FLC | Beta apoptosis
CCc1ccc([C@@H]2CC=C(C(=O)O)[C@H](c3ccccc3F)N2S(=O)(=O)c2ccc(C)cc2)cc1 | . | . | -0.4 | -3.3 | . | -9.8 | . | -1.6
Cc1nn(-c2ccccc2)c2c1C1(C(=O)N(C)c3ccccc31)N(c1ccccc1)C(=O)N2 (stereo not drawn) | -1.1 | 4.5 | -0.2 | -1.4 | ? | . | -0.5 | -2.2
CC(=O)c1cccc(NC(=O)C(C)N2CCc3ccccc3C2)c1 (stereo not drawn) | -11.1 | -4.6 | 0.0 | -3.7 | 0.1% | -100.5 | 0.8 | 0.2
CCn1nnnc1NCc1c(OC)ccc2ccccc12 | -9.8 | 4.3 | -0.2 | 0.0 | 21.5% | -2.2 | -1.1 | -4.0
Cc1csc(NC(=O)CN(C)S(=O)(=O)c2cccc3cccnc23)n1 | -1.7 | 3.4 | 0.2 | 0.1 | -5.7% | 1.8 | 2.5 | .
O=C(NCc1cccc(Cl)c1)c1cccc(OC2CCN(C(=O)C3CC3)CC2)c1 | 17.0 | 2.6 | -0.1 | 4.2 | -0.4% | 0.5 | -1.2 | -2.0
COc1ccc(NC(=O)C2CCN(C(=O)Nc3ccccc3)CC2)cc1S(=O)(=O)N(C)C | . | . | 0.3 | -2.9 | -10.1% | -1.3 | . | -0.9
COc1ccccc1Nc1nc(-c2ccccc2)nc2ccccc12 | 50.3 | -0.9 | 1.4 | -2.6 | . | -12.1 | 3.1 | -1.5
NC1=NC(=O)/C(=C/c2c(OS(=O)(=O)c3ccc(Cl)cc3)ccc3ccccc23)S1 | -20.1 | -2.0 | 0.0 | -1.0 | . | -2.3 | 4.0 | 2.3
Cc1cc(C)cc(C(=O)OCC(=O)NCc2ccco2)c1 | . | . | 0.2 | 0.3 | 8.0% | 1.7 | . | -5.8
O=C(COC(=O)COc1ccccc1[N+](=O)[O-])NC1CCCCC1 | . | . | -0.4 | 2.1 | 2.6% | -3.4 | . | 0.7
CCN(CC(=O)NC1CCS(=O)(=O)C1)C(=O)c1ccc(OC)c([N+](=O)[O-])c1 (stereo not drawn) | . | . | 0.6 | 1.4 | . | -2.4 | . | 3.0
CCC(Cc1ccccc1)NC(=O)C1CCCCC1 (stereo not drawn) | -0.6 | 3.9 | -0.1 | 1.6 | . | -4.3 | 3.9 | .
Cc1c(C(=O)NCc2cccnc2)oc2ccc(S(=O)(=O)N3CCC4(CC3)OCCO4)cc12 | -9.0 | 4.4 | 0.4 | 0.6 | -0.7% | . | -7.9 | -0.7
COc1ccc(NC(=O)CN(C)C(=O)CCCN2C(=O)c3cccc4cccc(c34)C2=O)cc1 | 3.6 | 2.0 | 0.0 | -2.4 | -3.5% | 0.5 | -1.0 | -1.7
COC(=O)c1c(C)nc2nonc2c1N | . | 0.3 | 0.5 | -0.1 | 21.5% | -2.7 | 3.8 | -0.9
CCN(CC(=O)Nc1cc(C)on1)CC(=O)Nc1ccccc1C(F)(F)F | . | . | 1.1 | -0.2 | . | -0.4 | . | -4.3
COc1ccc2c(CN3CCN(S(=O)(=O)c4cccs4)CC3)cc(=O)oc2c1 | 1.6 | -2.7 | -0.9 | 3.0 | -5.2% | -18.3 | 42.5 | 0.7
Cc1cc(C)cc(NC(=O)N2CCCC2C(=O)Nc2ccc(-n3cnnn3)cc2)c1 (stereo not drawn) | . | . | -0.8 | -3.6 | 1.5% | . | . | 5.3
Cc1ccc(CNc2ncccc2-c2nc3cc(Cl)ccc3o2)cc1 | 4.0 | -3.3 | . | -0.1 | -0.2% | . | -9.7 | 0.0
CCCCn1c(NC(C)CC)nc2c1c(=O)[nH]c(=O)n2C (stereo not drawn) | -3.0 | -1.3 | 0.4 | 2.0 | -0.3% | . | 1.5 | -6.5
CC1(C)CC(=O)C2=C(C1)N(Cc1cccnc1)C(=O)C2(NC(=O)C1CC1)C(F)(F)F (stereo not drawn) | -23.3 | 1.5 | -0.5 | 4.7 | 71.7% | . | -7.7 | -0.9
CC1(C)CC(NCCC(c2ccccc2)c2ccco2)CCO1 (stereo not drawn) | 1.2 | 5.1 | -0.6 | -6.1 | -0.3% | -0.4 | -4.1 | 4.8
Cc1c(NC(=O)c2ccc(CC(C)C)o2)c(=O)n(-c2ccccc2)n1C | -6.1 | 1.2 | -0.8 | -3.9 | -2.9% | 1.9 | 0.7 | -5.1
O=C(CSc1nc2ccccc2c(=O)n1-c1ccccc1)c1c[nH]c2ccccc12 | -2.4 | -1.4 | 0.0 | 5.2 | 19.2% | -1.7 | 17.1 | 2.4
CCNC(=O)c1ccc(C2SCC(=O)N2Cc2ccco2)cc1 (stereo not drawn) | -0.5 | 2.6 | 0.3 | 0.7 | -1.9% | . | -2.0 | -4.6
Cc1[nH]c2ccc(C(=O)O)cc2c1C | 3.2 | ? | 0.8 | -5.4 | 0.5% | . | -7.1 | .
COc1ccc(Cc2nn[nH]n2)cc1 | -6.8 | 4.0 | 0.0 | 2.1 | 29.6% | . | 0.5 | 0.5
C#CCOCCOCCOCCNc1nc(N2CCN(C(=O)[C@H]([C@@H](C)CC)n3cc(CCCCN)nn3)CC2)nc(N2CCN(C(=O)[C@H](CCCCN)n3cc(CC(C)O)nn3)CC2)n1 (stereo partly drawn) | . | . | -0.6 | -2.0 | . | 7.4 | . | 7.3
Cc1cccc(N2CCN(S(=O)(=O)c3ccc4c(c3)NC(=O)CO4)CC2)c1C | 8.4 | -2.4 | 0.4 | 4.4 | . | 0.9 | 19.1 | -8.0
